Screening data (PubChem BioAssay)
D2 potentiator = Beta-Arrestin HTS for Positive Allosteric Modulators of the Human D2 Dopamine Receptor: Potentiators; potentiation, % (test concentration not listed); DiscoveRx D2 beta-arrestin cells, luminescence, 90 min; 100% = 57 uM dopamine signal; 360,000 tested, 0.23% active; active = potentiation of 50% or more; inconclusive = 30% to 50%; inactive = 30% or less;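 also: compound concentration not given in the record; tested on top of an EC20 dose of dopamine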
Target sequence (P14416 whole entry, looked up): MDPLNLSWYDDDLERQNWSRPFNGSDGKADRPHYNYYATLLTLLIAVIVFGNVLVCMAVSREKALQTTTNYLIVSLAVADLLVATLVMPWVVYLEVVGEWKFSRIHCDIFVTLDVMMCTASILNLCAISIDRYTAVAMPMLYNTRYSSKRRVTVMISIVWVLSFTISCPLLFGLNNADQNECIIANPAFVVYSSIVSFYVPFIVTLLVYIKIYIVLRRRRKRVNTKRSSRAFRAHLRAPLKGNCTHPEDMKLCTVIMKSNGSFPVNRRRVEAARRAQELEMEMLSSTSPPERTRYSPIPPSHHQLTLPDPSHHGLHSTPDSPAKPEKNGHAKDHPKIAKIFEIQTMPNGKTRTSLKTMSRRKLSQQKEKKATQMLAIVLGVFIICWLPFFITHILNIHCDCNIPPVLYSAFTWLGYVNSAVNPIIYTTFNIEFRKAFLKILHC
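PathHunter beta-arrestin assay in DiscoveRx D2 cells. Compounds were added with an EC20 of dopamine (50 nM final) for 90 min at 37 deg C. Luminescence was read 1 h after detection reagent, with 57 uM dopamine as the EC100 control.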
PINK1 modulator = A Quantitative High throughput Screen to Identify Chemical Modulators of PINK1 Expression. PINK1 immunofluorescence, high-content cytometry, 24 h. Potency, µM (titrated, usually from 76.6 µM), for the others: at the highest dose activation (PINK1 increase), usual class: activators. 410,000 tested, 0.2% active; active = well fitted activation curve with a large enough effect; inconclusive = small, poorly fitted or top-dose-only effect; inactive = flat fitted curve, though single readings scatter; cell line not stated here;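 also: potency is read from the fitted curve at half-maximal effect; % of control where 0% means no effect; nearly all actives have a fitted effect of over 65% in size; a mitochondrial uncoupler was the plate control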
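Decision-based qHTS: stable cells, 24 h exposure to five compound concentrations, CCCP as control. Fixed cells stained for PINK1 plus nuclear, mitochondrial and cell markers, cytometer read.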
TRPML1 ag = qHTS for Agonists of the Human Mucolipin Transient Receptor Potential 1 (TRPML1) | Mucolipin-1 (Homo sapiens), Q9GZU1 | TRPML1-expressing cells, Ca2+ dye fluorescence, FDSS; host cell line not named in the record; reference of the full effect not given here | activation, % (test concentration not listed) | 410,000 tested, 0.12% active; in the data active = activation above about 50%; inconclusive = about 30% to 50%; inactive = below about 30%; also: 0% is about no effect; the text of the record puts the active cut at 80%
Target sequence (Q9GZU1 whole entry, looked up): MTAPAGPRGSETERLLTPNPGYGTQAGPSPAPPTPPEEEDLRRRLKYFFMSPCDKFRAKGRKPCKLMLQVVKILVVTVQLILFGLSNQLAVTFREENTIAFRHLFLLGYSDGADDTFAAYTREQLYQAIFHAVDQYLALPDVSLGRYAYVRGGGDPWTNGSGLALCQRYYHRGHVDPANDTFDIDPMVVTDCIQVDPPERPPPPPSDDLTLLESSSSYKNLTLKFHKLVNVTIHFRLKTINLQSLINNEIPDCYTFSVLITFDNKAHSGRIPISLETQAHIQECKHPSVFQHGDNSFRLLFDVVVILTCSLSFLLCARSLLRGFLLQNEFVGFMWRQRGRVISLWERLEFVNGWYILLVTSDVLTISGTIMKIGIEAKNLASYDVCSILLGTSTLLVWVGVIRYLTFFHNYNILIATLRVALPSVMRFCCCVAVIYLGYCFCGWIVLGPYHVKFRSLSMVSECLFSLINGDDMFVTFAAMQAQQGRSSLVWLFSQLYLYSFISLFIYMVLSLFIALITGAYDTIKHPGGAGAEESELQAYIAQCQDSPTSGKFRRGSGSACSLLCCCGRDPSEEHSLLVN
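Cells: TRPML1-DL, 1X Tet inducer, ~16 h at 37 degrees C/5% CO2. Dye: ABD Ca8 no-wash + quencher, 45-90 min RT. Read: 10 s baseline, compound add, 110 s agonist phase; 54-4 EC80 (4uM final), 110 s antagonist phase.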
TRPML1 inh = qHTS for Inhibitors of the Human Mucolipin Transient Receptor Potential 1 (TRPML1). TRPML1-inducible cells, Ca2+ dye fluorescence, FDSS; active compounds read low; inhibition of EC80 agonist-evoked calcium signal. activity change, negative = inhibition, % (concentration not given with the values). 390,000 tested, 0.02% active. AID 624415, 2012; in the data active means activity change below about -50%; inconclusive means about -30% to -50%; inactive means above about -30%;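 also: stimulus is agonist 54-4 at its EC80 concentration; % is scaled to controls: 0 for no effect and ±100 for the full control effect; the text of the record puts the active cut at -80%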
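Calcium fluorescence in TRPML1-DL cells induced overnight with Tet: a 110 s read after compound pin addition, then a 110 s antagonist read after challenge with 54-4 at 4 uM final (EC80).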
D2 agonist = Beta-Arrestin HTS for Positive Allosteric Modulators of the Human D2 Dopamine Receptor: Agonists; D(2) dopamine receptor (Homo sapiens), P14416; DiscoveRx PathHunter D2 beta-arrestin, luminescence, 90 min; 100% = 57 uM dopamine signal; activation, % (concentration not given with the values); 360,000 tested, 0.084% active; AID 624465, 2012; in the data active = activation above about 40%; inconclusive = about 15% to 40%; inactive = below about 15%; also: compound concentration not given in the record; the text of the record calls up to 30% inactive
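DiscoveRx PathHunter D2 beta-arrestin cells (2,100/well) attached overnight, then compound-stimulated 90 min at 37 C in HBSS/10 mM HEPES/0.1% Tween-20 buffer; beta-galactosidase complementation read by luminescence after 1 h at ambient temperature. Dopamine 57 uM final (EC100) as control.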
Six1-Eya2 inh = qHTS Assay for Inhibitors of the Six1/Eya2 Interaction; Homeobox protein SIX1 (Homo sapiens) + Protein phosphatase EYA2 (Homo sapiens), …; AlphaScreen GST-Six1/His-Eya2 binding, biochemical; active compounds read low; control for the full effect not named in the record; activity change, % (test concentration not listed); 360,000 tested, 0.56% active; in the data active = activity change below about -65%; inconclusive = about -30% to -65%; inactive = above about -30%; also: % is scaled to controls: 0 for no effect and ±100 for the full control effect
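Compounds are tested against tagged Six1 and Eya2 proteins bridged by glutathione donor and nickel acceptor beads; after a one-hour incubation at 37 °C without light, AlphaScreen emission is recorded.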
* marks the source's active call; other numbers are inactive results; ? = inconclusive; . = not tested or not shown; & = joins results of further samples; [ ] = another dose, or the depositor's remark. Random draw from the library; overall some 1% were active at least once.

compound | D2 potentiator | PINK1 modulator | TRPML1 ag | TRPML1 inh | D2 agonist | Six1-Eya2 inh
O=C(CN1C(=O)/C(=C/c2ccccc2)SC1=S)N1CCN(CCc2ccccn2)CC1 | -18 | 2.9% | -0.7 | 24 | -5.6 | 1
O=S(=O)(c1cccc(-c2nnco2)c1)N1CCOCC1 | 2 | -0.5% | -1.0 | 3 | -7.6 | -2
COC/C=C/C1=CC2=CC(=O)C(C)(OC(=O)c3cnc4ccccc4n3)C(=O)C2=CN1Cc1ccc(OC)cc1 (stereo not given) | 9 | -0.5% | -1.2 | -11 | 2.5 | -12
CC(C)NC(=O)NC(=O)COC(=O)c1ccccc1F | -6 | 3.6% | 0.2 | 24 | -2.9 | 7
O=S(=O)(c1cnc(Cl)c(Cl)c1)N1CCCc2ccccc21 | 8 | -0.6% | 2.7 | 38 | 0.8 | 11
COc1ccccc1N1CCN(c2cc(N3CCCC3)nc(C)n2)CC1 | -22 | ? | 1.3 | 9 | 2.6 | -6
CC(=O)Nc1c(O)[nH]c2ccccc12 | -6 | . | 0.6 | -7 | -3.5 | 6
O=C(Nc1nc(-c2ccc(S(=O)(=O)N3CCCC3)cc2)cs1)C1COc2ccccc2O1 (stereo not given) | 5 | 0.0% | -0.1 | -11 | 4.6 | 5
N#CC(CCc1ccccn1)c1ccccc1 (stereo not given) | -12 | -1.3% | 0.2 | 7 | -3.3 | -2
COc1ccc(NC(=O)CSc2nc(C)cs2)cc1OC | 0 | 0.5% | -1.6 | 0 | 0.2 | 1
CC(=O)/C=C1\N(C)c2ccc(C)cc2C1(C)C | 0 | 0.5% | 1.4 | 9 | 8.2 | 5
COC(=O)C1=C(C(=O)OC)C(c2cc([N+](=O)[O-])ccc2O)c2sc(=O)[nH]c2S1 (stereo not given) | -4 | 6.3% | -0.2 | -5 | -6.3 | -14
COc1ccccc1N(C(=O)NCc1ccccc1)C1=NCC(C)S1 (stereo not given) | -3 | 3.6% | 2.0 | 6 | -2.6 | 7
Cc1ccc(C)c(N2CCN(C(c3ccc(F)cc3)c3nnc(-c4ccccc4)o3)CC2)c1 (stereo not given) | . | 1.6% | 1.7 | 58 | . | .
CCOc1ccc(S(=O)(=O)Nc2nc3ccccc3nc2N2CCN(C)CC2)cc1 | -5 | 0.8% | -0.5 | -7 | -0.8 | 9
Cc1nc2ccc(NC(=O)Cc3ccc4c(c3)OCCO4)cc2s1 | -4 | 0.5% | 1.4 | -6 | -2.0 | 6
NC(=O)NCc1ccc(F)cc1 | -2 | 0.1% | 1.2 | -16 | -1.8 | -2
CCOc1ccc(-n2cnnn2)cc1S(=O)(=O)Nc1c(C)cccc1C | -2 | . | 0.7 | 19 | 0.1 | 4
Cc1occc1C(=O)NNC(=O)NC12CC3CC(CC(C3)C1)C2 | -7 | 1.3% | 0.6 | 1 | -1.2 | 0
CCN(CC)CCN(C(=O)c1ccc2c(c1)CCCC2)c1nc2c(C)cccc2s1 | -16 | 45µM* | -0.6 | -6 | 6.6 | -16
CCOC(=O)c1ccc(Oc2nc(NC)nc(Nc3ccccc3)n2)cc1 | -3 | ? | 1.1 | 0 | -2.2 | -2
C/C(=N\OC(=O)c1ccccc1)c1cc(-c2ccc(Cl)cc2)no1 | -12 | 0.2% | -1.0 | 6 | -1.7 | -1
CCC1CN(C(=O)N2CCC(C(=O)NCc3cc(OC)ccc3OC)CC2)c2ccccc2O1 (stereo not given) | . | 1.1% | 3.4 | -12 | . | .
C=C(C1=CCN(S(=O)(=O)C(C)(C)C)[C@@H]1CCO)c1ccccc1 | . | -0.2% | 0.5 | 40 | 1.3 | -3
COc1ccc(S(=O)(=O)N2CCCOC2CNC(=O)C(=O)NC2CCCC2)cc1 (stereo not given) | -13 | -0.1% | 0.5 | -5 | -2.6 | -4
CC(=O)Nc1ccc(S(=O)(=O)NCC(=O)NC(C)c2ccc(S(N)(=O)=O)cc2)cc1 (stereo not given) | 3 | -0.8% | 0.6 | -13 | -0.2 | 14
O=C(CN1C(=O)COc2ccc(S(=O)(=O)N3CCCCC3)cc21)NCc1ccc(F)cc1 | -13 | -0.1%&0.7% | -0.1&-0.7 | -5&8 | -6.3 | 4
CCCN(C(=O)CCl)C1=CCCCC1 | -6 | -3.4% | -0.2 | 24 | -7.6 | 9
Cc1ccc(NC(=O)N2CCC(n3c(C)nc4cccnc43)CC2)c(Cl)c1 | . | 0.6% | -0.1 | -11 | . | .
N/C(=N\OC(=O)c1ccc(Cl)c(Cl)c1)c1ccccn1 | 82* | 2.0%[38.3 µM] | 0.1 | 6 | 11 | 3

Taken from above:
In TRPML1 inh, `N/C(=N\OC(=O)c1ccc(Cl)c(Cl)c1)c1ccccn1` has the entry 6
In TRPML1 ag, `COC(=O)C1=C(C(=O)OC)C(c2cc([N+](=O)[O-])ccc2O)c2sc(=O)[nH]c2S1` (stereo not given) has the entry -0.2
In D2 potentiator, `O=C(CN1C(=O)COc2ccc(S(=O)(=O)N3CCCCC3)cc21)NCc1ccc(F)cc1` has the entry -13
In D2 potentiator, `COc1ccc(S(=O)(=O)N2CCCOC2CNC(=O)C(=O)NC2CCCC2)cc1` (stereo not given) has the entry -13

More compounds:
compound | D2 potentiator | PINK1 modulator | TRPML1 ag | TRPML1 inh | D2 agonist | Six1-Eya2 inh
CCn1cc(C(=O)NCC(C)C)c(=O)c2cc(F)c(N3CCN(C(=O)c4ccco4)CC3)cc21 | -2 | -0.5% | 1.6 | 19 | 1.1 | 4
CN(CC(=O)N1CCOCC1)S(=O)(=O)c1ccc2ccccc2c1 | -1 | -0.7% | -0.3 | 7 | -3.5 | 4
CCCn1c(=O)c2[nH]cnc2n(-c2ccccc2C)c1=O | -7 | -0.4% | -0.6 | -1 | -6.3 | 1
COc1ccc(-c2cc3ccc(OCC(C)=O)cc3oc2=O)cc1 | 10 | -0.7% | 0.2 | 1 | -2.0 | 0
COC(=O)c1ccccc1NC(=O)Cn1cnc2ccc(S(=O)(=O)N3CCC(C)CC3)cc2c1=O | -1 | 14% | -0.3 | 8 | -5.0 | 1
Cc1sc2nnn(CC(=O)N3CCN(C(=O)c4ccco4)CC3)c(=O)c2c1C | 2 | 1.3%[38.3 µM] | -0.3 | 3 | 1.8 | -2
O=C(CCNC(=O)c1ccc(Br)cc1)NCc1ccccc1F | -67 | 1.2% | 1.4 | -9 | -3.3 | -6
COc1ccccc1NC(=O)c1cc2cc(Br)ccc2cc1O | -9 | ? | 0.3 | 25 | ? | 3
CCOC(=O)C1CCCN(C2CC(=O)N(c3ccc(NC(C)=O)cc3)C2=O)C1 (stereo not given) | -2 | 0.8% | -0.2 | 6 | -1.4 | 5
Cc1ccc2c(c1)C(O)(c1c(C)[nH]c3ccccc13)C(=O)N2 (stereo not given) | -14 | 1.0% | 0.1 | -4 | -2.1 | -6
CC(C)(C)OC(=O)NCCc1n[nH]c(=S)o1 | -9 | 0.3% | 0.1 | -8 | -3.2 | 5
COC(=O)CNc1n[nH]c(=S)[nH]c1=O | 5 | -0.7% | -0.5 | 42 | -0.9 | 8
Cc1noc(C)c1S(=O)(=O)N(C)C[C@H]1Oc2ccc(NC(=O)Cc3ccccc3)cc2C(=O)N([C@H](C)CO)C[C@@H]1C | 1 | 0.0% | -0.4 | 4 | -5.2 | 2
CC(C)C(=O)N1CCC1(C)C(=O)Nc1ccc2cn[nH]c2c1 (stereo not given) | -4 | -0.3% | 0.1 | . | -2.4 | 8
COc1cc(NC(=O)SC2=NCCS2)cc(OC)c1 | 1 | 4.1% | -0.3 | 4 | -1.4 | -3
c1ccc(N2CCN(c3cccc(-c4cc5ccccc5s4)n3)CC2)nc1 | -1 | 0.0% | -0.3 | . | -2.0 | 20
COc1ccc(C(=O)O/N=C2\C(=O)N(C)c3ccccc32)cc1 | -10 | -0.8% | 0.5 | 15 | 0.5 | 13
Cc1ccc(S(=O)(=O)N(C)C)cc1NC(=O)COC(=O)c1ccc2c(c1)OCCO2 | -22 | 1.7% | -0.1 | 4 | -0.1 | -14
C=CCN(C(=O)CN1CCOCC1)c1nc(C)c(-c2ccccc2)s1 | -17 | 2.5% | 0.0 | -8 | -3.5 | 19
COc1ccc(CCNC(=O)c2cnccn2)cc1 | -7 | 0.1% | -1.0 | 19 | -3.1 | -6
CC(C)c1ccc(CC(NC(=O)c2ccccc2)C(=O)NCC(=O)O)cc1 (stereo not given) | -6 | -1.4% | 0.3 | 19 | 2.1 | 0
Cc1ccccc1NCC(=O)c1ccc(Br)cc1 | -29 | -1.1%[38.3 µM] | -0.4 | -5 | -9.6 | -2
O=c1c2ccccc2nnn1CSc1ccccc1 | -16 | 0.7% | -0.4 | 6 | 0.5 | -4
COc1ccc(-c2csc3[nH]c(=S)n(-c4ccccc4)c(=O)c23)cc1OC | -7 | 1.2% | 0.5 | -10 | -4.0 | -2
CCOc1ccc(-c2nnc(-c3ccccc3)o2)cc1 | -13 | 1.0% | 1.1 | 4 | -0.1 | 0
COc1ccccc1CNC(=O)[C@@H]1CCCN1S(=O)(=O)c1ccc(Cl)cc1 | -4 | 1.5% | -0.1 | 4 | 3.5 | 0
COc1cc(OC)cc(C(=O)N[C@H](C(=O)OCC(=O)Nc2ccc3c(c2)OCO3)C(C)C)c1 | -9 | 2.5% | 2.5 | 11 | -1.5 | 3
COc1ccc(Nc2ncnc3onc(C)c23)cc1Cl | . | -4.9% | 0.1 | 69 | . | .
N#Cc1c(-n2ncnc2-c2ccccc2C(F)(F)F)sc2c1CCCCC2 | . | 0.9% | 0.1 | 17 | . | .
O=S(=O)(N(Cc1ccccc1)[C@@H](CO)Cc1ccccc1)N(Cc1ccccc1)[C@@H](CO)Cc1ccccc1 | 4 | 2.3% | 1.2&1.8 | 35 | 0.5 | 0

Arranged by number of heavy atoms (highest first): 3 of the compounds above.
compound | D2 potentiator | PINK1 modulator | TRPML1 ag | TRPML1 inh | D2 agonist | Six1-Eya2 inh
C=CCN(C(=O)CN1CCOCC1)c1nc(C)c(-c2ccccc2)s1 | -17 | 2.5% | 0.0 | -8 | -3.5 | 19
CN(CC(=O)N1CCOCC1)S(=O)(=O)c1ccc2ccccc2c1 | -1 | -0.7% | -0.3 | 7 | -3.5 | 4
COc1ccc(C(=O)O/N=C2\C(=O)N(C)c3ccccc32)cc1 | -10 | -0.8% | 0.5 | 15 | 0.5 | 13

Next section.
compound | D2 potentiator | PINK1 modulator | TRPML1 ag | TRPML1 inh | D2 agonist | Six1-Eya2 inh
O=C(NCc1cccnc1)c1ccc([N+](=O)[O-])cc1 | -11 | 0.8% | -0.2 | -3 | 2.9 | 6
Fc1ccc(-[n+]2nc(Nc3ccccc3)sc2-c2c3ccccc3cc3ccccc23)cc1 | -17 | ? | 1.2 | 40 | 0.3 | ?
COc1ccc(C(=O)Nc2ccc(NC(=O)C3CC3)nc2)cc1 | -8 | 2.5% | 0.7 | 27 | 0.6 | -2
Cc1nc2c(cc1N)nc(C)n2Cc1ccccc1 | -4 | -1.9% | 0.6 | 1 | -4.8 | -5
